ID4 binder – ID4 (human) binding. P47928. small molecule microarray, Flag-ID4 binding, fluorescence F/B. calls only. 31,000 compounds, 1.2% hits. AID 624137;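 active = spot signal over background at p below 0.07 in all four prints; compounds were printed on slides so no solution concentration is given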;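 also: a binder raises fluorescence above local background on the spot; about 2 pmol printed per array spot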
Target sequence (P47928 whole entry, looked up): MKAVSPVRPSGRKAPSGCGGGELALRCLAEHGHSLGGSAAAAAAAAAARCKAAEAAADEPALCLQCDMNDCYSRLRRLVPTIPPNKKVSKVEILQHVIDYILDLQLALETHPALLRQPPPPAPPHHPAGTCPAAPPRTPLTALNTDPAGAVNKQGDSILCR
Calls only; i = inactive; + = active, no number. The list is partial; rates above refer to the full screens.

SMILES	ID4 binder
O=[N+]([O-])c1ccc2nc(CSc3nc4ccccc4s3)[nH]c2c1	i
CCC(=O)N[C@@H]1CC[C@@H](CC(=O)OC)O[C@@H]1CO	i
COc1ccc(C)cc1S(=O)(=O)N(C)CC(=O)Nc1ccccc1F	i
COc1ccccc1CNC(=O)C[C@@H]1C[C@H]2c3cc(NC(=O)CC4CC4)ccc3O[C@H]2[C@H](CO)O1	i
COc1ccc(S(=O)(=O)NCc2ccccn2)cc1C	i
C=CCn1c(N)cc(=O)nc1SCC(=O)N1c2ccccc2Sc2ccccc21	i
O=C(O)COc1cccc(NC(=O)c2ccc(-c3ccccc3)cc2)c1	i
COC(=O)c1ccccc1NC(=O)c1cccc(NC(=O)COc2ccccc2)c1C	i
CN(C)c1c(F)cc(C(=O)NC(=O)NC2=NCCS2)cc1F	i
O=C(CSc1nnc(-c2cccs2)n1-c1ccc(Cl)cc1)c1ccc(Cl)cc1	i
C[C@H](NC(=O)C[C@@H]1CC[C@@H](NC(=O)c2cccnc2)[C@@H](CO)O1)c1ccccc1	i
O=C(Nc1ccc(Br)cc1)c1ccc(NS(=O)(=O)c2cccc3cccnc23)cc1	i
O=C(COc1ccc(S(=O)(=O)N2CCCC2)cc1Cl)Nc1ccccc1	i
CN(C)C(=O)C[C@@H]1CC[C@H](NC(=O)C2CC2)[C@@H](CO)O1	i
COc1ccc(C(=O)CCC(=O)Nc2ccc(C(=O)O)cc2)c(OC)c1	i
C[C@@H]1CN([C@H](C)CO)C(=O)c2cc(C#CC3CCCC3)cnc2O[C@H]1CN(C)C(=O)C1CC1	i
COc1ccc(OC)c(NC(=O)CSc2nc(-c3ccccc3)cc(=O)[nH]2)c1	i
O=C(O)CCNc1ncnc2c1oc1ccccc12	i
CCCN(C)C[C@@H]1Oc2ncc(-c3ccccc3F)cc2C(=O)N([C@H](C)CO)C[C@H]1C	i
COC(=O)c1c(C)oc2ccc(N(C(=O)c3ccncc3)S(=O)(=O)c3ccc(F)cc3C)cc12	i
Cc1cc(=O)oc2cc(OC(C)C(=O)Nc3ccc(Cl)c(C(F)(F)F)c3)ccc12 (configuration not stated)	i
C[C@@H]1CN([C@H](C)CO)C(=O)c2cc(C3=CCCC3)cnc2O[C@H]1CN(C)S(C)(=O)=O	i
COC(=O)c1cc(NC(=O)COc2ccc(Br)cc2)cc(C(=O)OC)c1	i
C[C@H](CO)N1C[C@H](C)[C@H](CN(C)C(=O)C2CCCCC2)Oc2ncc(-c3ccccc3)cc2C1=O	i
COc1ccc(OCC(=O)Nc2ccc3oc(-c4cccc(I)c4)nc3c2)cc1	i
CCCC#Cc1cnc2c(c1)C(=O)N([C@H](C)CO)C[C@H](C)[C@@H](CN(C)C(=O)C1CC1)O2	i
COC(=O)COc1cccc(NC(=O)c2ccc(Cl)cc2)c1	i
COc1ccc(OC)c(C(=O)CSc2nnc(-c3cccnc3)n2C)c1	i
C[C@@H]1CN([C@@H](C)CO)S(=O)(=O)c2ccc(-c3cncnc3)cc2O[C@@H]1CN(C)C(=O)c1ccc2c(c1)OCO2	i
O=C(COc1ccc2cc(Br)ccc2c1)Nc1cccc([N+](=O)[O-])c1	i
C[C@@H]1CN([C@H](C)CO)S(=O)(=O)c2ccc(-c3cncnc3)cc2O[C@@H]1CN(C)C(=O)c1ccc2c(c1)OCO2	i
Cc1ccc(-c2cnc3c(c2)C(=O)N([C@@H](C)CO)C[C@@H](C)[C@H](CN(C)CC2CCOCC2)O3)cc1	i
CCN(CC(=O)Nc1ccccc1C(F)(F)F)S(=O)(=O)c1ccc(Cl)cc1	i
CCCC#Cc1cnc2c(c1)C(=O)N([C@@H](C)CO)C[C@@H](C)[C@H](CN(C)Cc1ccccc1)O2	i
COc1ccccc1CNc1cc(-c2nn3c(C)nnc3s2)ccc1C	i
COc1ccc(OC(C)C(=O)Nc2cc(C)ccc2OC)cc1 (configuration not stated)	i
COC(=O)c1ccccc1NC(=O)c1ccc(Cl)c(S(=O)(=O)Nc2ccccc2C)c1	i
C[C@H]1CN([C@@H](C)CO)C(=O)CCCn2cc(nn2)CO[C@@H]1CN(C)CC1CCCCC1	+
COCC#Cc1ccc2c(c1)O[C@H](CN(C)C)[C@@H](C)CN([C@H](C)CO)S2(=O)=O	i
Cc1ccc(NC(=O)CSc2nc3sc4c(c3c(=O)[nH]2)CCCC4)cc1[N+](=O)[O-]	i
NC(=O)c1ccccc1NC(=O)COc1ccc2oc3c(c2c1)CCCC3	i
C[C@@H]1CN([C@H](C)CO)S(=O)(=O)c2ccc(C#CCN(C)C)cc2O[C@H]1CN(C)CC1CCCC1	i
CCn1c(SCC(=O)N2c3ccccc3Sc3ccccc32)nnc1-c1ccco1	i
O=S(=O)(N[C@@H]1CCCN(Cc2ccc(OCCO)cc2)C1)c1ccccc1	i
COc1cccc(-c2cnc3c(c2)C(=O)N([C@H](C)CO)C[C@H](C)[C@H](CN(C)Cc2ccccc2)O3)c1	i
C[C@@H]1CN([C@@H](C)CO)C(=O)c2cc(-c3ccc(F)cc3)cnc2O[C@@H]1CN(C)CC1CCOCC1	i
CN(C)CCCC[C@@H]1NC(=O)[C@H]2C[C@@H](C(=O)NCc3ccc(F)cc3)[C@@H](c3ccc(O)cc3)N2C1=O	i
O=C(CS)NCCCCCCNC(=O)[C@@H]1C[C@@H]2C(=O)NCC(=O)N2[C@@H]1c1ccc(O)cc1	i
CC(=O)Nc1ccc(NC(=O)CN(c2ccc(C)c(Cl)c2)S(C)(=O)=O)cc1	i
COc1ccccc1CNC(=O)c1ccc(Cl)c(S(=O)(=O)N2CCOCC2)c1	i

Reprinted at random: two records from the list, in no set order.
SMILES	ID4 binder
COc1ccccc1CNC(=O)c1ccc(Cl)c(S(=O)(=O)N2CCOCC2)c1	i
CC(=O)Nc1ccc(NC(=O)CN(c2ccc(C)c(Cl)c2)S(C)(=O)=O)cc1	i

Next part.
SMILES	ID4 binder
CCCn1c(NCCCO)nc2ccccc21	i
O=C(CN1CCCC1)Nc1sc2c(c1C(=O)Nc1ccccc1)CCCC2	i
Cn1cnc(S(=O)(=O)N[C@@H]2CC[C@@H](CC(=O)N3CCN(c4ccccc4)CC3)O[C@@H]2CO)c1	i
CN(c1cccc(NC(=O)c2ccc(Cl)c(S(=O)(=O)N3CCOCC3)c2)c1)S(C)(=O)=O	i
O=C(C[C@H]1CC[C@H](NC(=O)C2CC2)[C@H](CO)O1)NCc1ccccc1Cl	i
CO[C@@H]1CN(C)C(=O)c2cc(NC(=O)c3cccc(F)c3)ccc2OC[C@@H](C)NC[C@H]1C	i
O=C(CCN1CCCCC1)N[C@H]1C=C[C@H](CC(=O)N2CCC(Cc3ccccc3)CC2)O[C@@H]1CO	i
C[C@H](CO)N1C[C@H](C)[C@@H](CN(C)CC2CCOCC2)Oc2cc(C3=CCCC3)ccc2S1(=O)=O	i
CCOC(=O)c1cccc(NC(=O)CSc2nc3ccccc3[nH]2)c1	i
O=C(CCCN1C(=O)c2cccc3cccc(c23)C1=O)N1CCN(c2ncccn2)CC1	i
C[C@@H]1CN([C@@H](C)CO)C(=O)c2cc(C3=CCCC3)cnc2O[C@H]1CN(C)C(=O)CN(C)C	i
COCC(=O)N[C@H]1C=C[C@@H](CC(=O)N2CCCCC2)O[C@H]1CO	i
Cc1nnc(SCc2nc(N)nc(Nc3ccc4ccccc4c3)n2)s1	i
CC(=O)[C@@]1(O)CCC2C3CCC4=CC(=O)CC[C@]4(C)C3CC[C@@]21C (some centres not stated)	i
NC(=O)c1c(NC(=O)c2cnn3c(C(F)(F)F)cc(-c4cccs4)nc23)sc2c1CCCC2	i
CNC[C@H]1Oc2ncc(C#Cc3ccccc3F)cc2C(=O)N([C@H](C)CO)C[C@H]1C	i
C[C@H]1CN([C@@H](C)CO)C(=O)c2cc(-c3ccccc3)cnc2O[C@@H]1CN(C)C(=O)c1ccccc1F	i
CCCC#Cc1ccc2c(c1)O[C@@H](CN(C)C)[C@H](C)CN([C@@H](C)CO)S2(=O)=O	i
COC(=O)CNC(=O)c1cn(-c2ccccc2)nc1-c1cccc(Br)c1	i
COc1ccc(OC)c(S(=O)(=O)N(C)CC(=O)N2CCN(c3ccccc3F)CC2)c1	i
Cc1ccc(N(C(C)C(=O)Nc2ccccc2Br)S(C)(=O)=O)cc1C (configuration not stated)	i
COc1ccccc1OCC(=O)Nc1cccc(N(C)S(C)(=O)=O)c1	i
CC1(C)Cc2c(c(N3CCOCC3)nc3sc(C(=O)O)cc23)CO1	i
C[C@@H]1CN([C@@H](C)CO)C(=O)c2cc(-c3cccc(C(=O)N(C)C)c3)cnc2O[C@H]1CN(C)C(=O)Cc1ccccn1	i
CC(=O)c1cccc(NC(=O)NCc2cccnc2)c1	i
Cc1cc(C)c2oc(-c3ccc(C)c(NC(=O)COc4ccc(Cl)cc4)c3)nc2c1	i
Cc1cc(S(=O)(=O)NCC2CCN(C(=O)OC(C)(C)C)CC2)c(C)o1	i
C[C@@H]1CN([C@@H](C)CO)S(=O)(=O)c2ccc(-c3ccncc3)cc2O[C@@H]1CN(C)C(=O)CC1CC1	i
COc1ccccc1-n1nnnc1SCC(=O)Nc1ccccc1C	i
C[C@H](CO)N1C[C@H](C)[C@H](CN(C)C)Oc2ncc(/C=C/c3ccccc3)cc2C1=O	i
N#Cc1c(NC(=O)Cn2c(=O)oc3ccccc32)sc2c1CCC2	i
C[C@H](CO)N1C[C@H](C)[C@H](CN(C)C(=O)Cc2ccccn2)Oc2ncc(-c3cccc(C(=O)N(C)C)c3)cc2C1=O	i
C[C@H](CO)N1C[C@H](C)[C@@H](CN(C)C)Oc2cc(Br)ccc2S1(=O)=O	i
CCc1nc(SCC(=O)Nc2c(Cl)cccc2Cl)c(C#N)c(C(F)(F)F)c1C	i
CC(C)C#Cc1cnc2c(c1)C(=O)N([C@H](C)CO)C[C@@H](C)[C@H](CN(C)C(=O)c1ccccc1F)O2	i
O=C(C1=C[C@@H](c2csc3ccccc23)C[C@@H](OCc2ccc(CO)cc2)O1)N1CCCCC1	i
CCn1c(SCC(=O)Nc2cccc(Br)c2)nnc1-c1ccco1	i
COC(=O)c1ccccc1NC(=O)C(C)Oc1cccc(Cl)c1 (configuration not stated)	i
COc1ccc(NC(=O)COc2nc(N(C)C)nc(N(C)C)n2)cc1	i
C/C=C/c1cnc2c(c1)C(=O)N([C@H](C)CO)C[C@@H](C)[C@H](CN(C)C(=O)c1ccc3c(c1)OCO3)O2	i
CS(=O)(=O)N(CC(=O)Nc1ccccc1C(=O)N1CCOCC1)c1ccc(F)c(Cl)c1	i
COc1ccc(NC(=O)CN(c2ccc(F)c(Cl)c2)S(C)(=O)=O)cc1OC	i
O=C(O)C1C2CC=CC2c2cc(Cl)cc3c2N1CC1CC=CC31 (configuration not stated)	i
O=C(O)CN(c1ccc([N+](=O)[O-])cc1)S(=O)(=O)c1ccccc1	i
COc1ccc2c(=O)c(CC(=O)O)coc2c1	i
C[C@@H]1CN([C@@H](C)CO)S(=O)(=O)c2ccc(C#C[C@@H](C)O)cc2O[C@@H]1CN(C)C(=O)CN(C)C	i
CCC(=O)N(C)C[C@H]1Oc2ncc(C#CCC(C)C)cc2C(=O)N([C@@H](C)CO)C[C@H]1C	i
COc1ccccc1NC(=O)N[C@H]1C=C[C@@H](CC(=O)N[C@H](C)c2ccccc2)O[C@@H]1CO	i
CC(=O)N(C)C[C@@H]1Oc2ncc(C#Cc3ccc(F)cc3)cc2C(=O)N([C@H](C)CO)C[C@H]1C	i
CCC(=O)N(C)C[C@H]1Oc2ncc(Br)cc2C(=O)N([C@H](C)CO)C[C@H]1C	i
Next results:
SMILES	ID4 binder
COC(=O)c1ccccc1NC(=O)C1CCCN(S(=O)(=O)c2ccccc2)C1 (configuration not stated)	i
COc1cc(O)c(C(=O)CCc2ccccc2)c(O)c1Cc1ccccc1O	i
C[C@@H]1CN([C@H](C)CO)C(=O)c2cc(C#CC3CC3)cnc2O[C@H]1CN(C)C(=O)c1ccc(F)cc1	i
O=C(CC(NC1CCCCC1)C(=O)O)Nc1cccc(Cl)c1 (configuration not stated)	i
C[C@H]1CN([C@@H](C)CO)S(=O)(=O)c2ccc(C#CC3CCCC3)cc2O[C@H]1CN(C)C	i
O=C(NCC1OCCc2ccccc21)C(c1ccccc1)c1ccccc1 (configuration not stated)	i
C[C@H](NC(=O)C[C@H]1C=C[C@H](NC(=O)C2CC2)[C@@H](CO)O1)c1ccccc1	i
C[C@@H]1CN([C@@H](C)CO)C(=O)c2cc(C#Cc3ccccc3)cnc2O[C@@H]1CN(C)C(=O)CN(C)C	i
Cc1cc(C)c(NC(=O)C(C)N(c2ccccc2)S(C)(=O)=O)c(C)c1 (configuration not stated)	i
COc1cccc(S(=O)(=O)N[C@H]2C=C[C@H](CC(=O)NC3Cc4ccccc4C3)O[C@@H]2CO)c1	i
CCCC#Cc1cnc2c(c1)C(=O)N([C@H](C)CO)C[C@@H](C)[C@H](CN(C)Cc1ccc3c(c1)OCO3)O2	i
COc1ccc(OC)c(S(=O)(=O)NCc2cccnc2)c1	i

Among those listed so far, twelve contain an aryl thioether with sulfur outside any ring.
SMILES	ID4 binder
O=[N+]([O-])c1ccc2nc(CSc3nc4ccccc4s3)[nH]c2c1	i
C=CCn1c(N)cc(=O)nc1SCC(=O)N1c2ccccc2Sc2ccccc21	i
O=C(CSc1nnc(-c2cccs2)n1-c1ccc(Cl)cc1)c1ccc(Cl)cc1	i
COc1ccc(OC)c(NC(=O)CSc2nc(-c3ccccc3)cc(=O)[nH]2)c1	i
COc1ccc(OC)c(C(=O)CSc2nnc(-c3cccnc3)n2C)c1	i
Cc1ccc(NC(=O)CSc2nc3sc4c(c3c(=O)[nH]2)CCCC4)cc1[N+](=O)[O-]	i
CCn1c(SCC(=O)N2c3ccccc3Sc3ccccc32)nnc1-c1ccco1	i
CCOC(=O)c1cccc(NC(=O)CSc2nc3ccccc3[nH]2)c1	i
Cc1nnc(SCc2nc(N)nc(Nc3ccc4ccccc4c3)n2)s1	i
COc1ccccc1-n1nnnc1SCC(=O)Nc1ccccc1C	i
CCc1nc(SCC(=O)Nc2c(Cl)cccc2Cl)c(C#N)c(C(F)(F)F)c1C	i
CCn1c(SCC(=O)Nc2cccc(Br)c2)nnc1-c1ccco1	i
